Screening results deposited in PubChem BioAssay by National Center for Advancing Translational Sciences (NCATS).
Cruzain Triton: blocks cruzain activity in presence of Triton detergent; purified cruzain, Z-FR-AMC fluorescence, 0.01% Triton; Potency, µM, for the others: max response, negative = inhibition, most hits filed as inhibitors; 0.43% of 200,000 active; active = well fitted curve in the direction sought with a large enough effect; inconclusive = small, poorly fitted or top-dose-only effect, or another doubt; inactive = no such curve, though single readings can be large; an effect the other way counts as inactive or inconclusive;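 note: plate controls were neutral wells for no effect and buffer without enzyme for full effect; nearly all actives have a fitted effect of over 40% in size; top concentration of the series not given in the record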
Target sequence (P25779 123-467 limits assumed): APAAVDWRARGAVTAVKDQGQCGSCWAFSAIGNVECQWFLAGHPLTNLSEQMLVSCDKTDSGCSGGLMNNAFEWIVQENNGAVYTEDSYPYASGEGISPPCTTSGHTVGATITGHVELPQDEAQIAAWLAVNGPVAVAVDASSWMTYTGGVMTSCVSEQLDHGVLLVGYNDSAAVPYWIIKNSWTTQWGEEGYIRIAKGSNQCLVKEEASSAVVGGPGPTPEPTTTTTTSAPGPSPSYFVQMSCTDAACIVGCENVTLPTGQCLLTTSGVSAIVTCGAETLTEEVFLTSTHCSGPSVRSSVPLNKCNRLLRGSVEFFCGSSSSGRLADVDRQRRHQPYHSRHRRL
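Steps: dispense cruzain (1.5 nM final) in acetate buffer pH 5.5 with DTT and 0.01% Triton X-100; pin-transfer compounds; incubate 15 min RT; add Z-FR-AMC (2 uM final); read fluorescence every 30 s, using the 60 s intensity change.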
Marburg entry inh: inhibitors of Marburg virus binding or cell entry; Marburg virus pseudotyped entry inhibition, cell reporter; control for the full effect not named in the record; about a third of the inactives were read at about 46 µM; Potency, µM (titrated, usually from 37.8 µM), without a hit: at the highest dose activity change, negative = inhibition, usual class: inhibitors; 1.8% of 300,000 active; AID 540276; active = well fitted inhibition curve with a large enough effect; inconclusive = small, poorly fitted or top-dose-only effect, or effect the other way; inactive = flat fitted curve, though single readings scatter; tested in HEK293 cells; about a fifth of its hits are not listed in these tables; note: % is set by controls: 0 for no effect and ±100 for the full control effect; luciferase read-out
RE007 growth inh: less growth of the S. pombe RE007 Vpr strain | Potency, µM (highest dose often 92.2 µM), for inactives: top-dose activity change, negative = less growth | S. pombe RE007 Vpr strain, BacTiter-Glo ATP luminescence, 24 h; control for the full effect not named in the record | 0.21% of 360,000 active | AID 651644; active = well fitted falling curve with a large enough effect; inconclusive = small, poorly fitted or top-dose-only effect; inactive = no such curve, though single readings can be large or run the other way;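 note: % is set by controls: 0 for no effect and ±100 for the full control effect; nearly all actives have a fitted effect of over 50% in size; the assay follows cell death caused by Vpr and the record does not say whether a fall means rescue or toxicity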
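Fission yeast RE007 carrying one integrated HIV-1 vpr copy, seeded at OD 0.01 in PMG+AL medium with 23 nL pinned compound. Grown 24 h at 30 degrees; viability read by BacTiter-Glo luminescence after 5 min.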
NS1 function inh: inhibitors of influenza NS1 protein function; Potency, µM (doses to about 46.1 µM), without a hit: top-dose activity, positive = more growth; AID 2326; S. cerevisiae slowed by influenza A NS1, growth recovery by OD600; 0.4% of 270,000 active; note: actives are rising curves; nearly all actives have a fitted effect of over 50% in size
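Growth recovery, yeast-based: influenza A NS1 expressed in S. cerevisiae causes slow growth, and suppressors are detected by OD600. The parent strain without NS1 is used as positive control.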
Lassa entry inh: blocks Lassa virus binding to or entry into cells; Lassa virus pseudotype entry inhibition, cell reporter; control for the full effect not named in the record; Potency, µM (series often up to 37.9 µM), without a hit: top-dose activity change, negative = inhibition, most hits filed as inhibitors; 1.2% of 300,000 active; active means well fitted inhibition curve with a large enough effect; inconclusive means small, poorly fitted or top-dose-only effect, or effect the other way; inactive means flat fitted curve, though single readings scatter; tested in HEK293 cells; note: % is set by controls: 0 for no effect and ±100 for the full control effect; nearly all actives have a fitted effect of over 50% in size; luciferase read-out
StopGo reporter: FMDV 2A StopGo reporter, luciferase signal. 1.2% of 410,000 active. human cells with a luciferase reporter of 2A StopGo recoding; control for the full effect not named in the record. AID 1159524. Potency, µM (series often up to 57.9 µM), for the others: at the highest dose signal change, negative = less light; active = well fitted falling curve with a large enough effect; inconclusive = small, poorly fitted or top-dose-only effect; inactive = no such curve, though single readings can be large or run the other way; tested in HEK293T cells; note: % is set by controls: 0 for no effect and ±100 for the full control effect; nearly all actives have a fitted effect of over 45% in size; luciferase light after 4 h
SARS PLP yeast: inhibitors of SARS-CoV papain-like protease in yeast; Potency, µM (titrated, usually from 32.9 µM), without a hit: at the top dose activity, positive = growth rescue; S. cerevisiae expressing SARS-CoV PLpro, growth rescue; control for the full effect not named in the record; 0.19% of 330,000 active; note: 0% is about no effect; nearly all actives have a fitted effect of over 55% in size; growth read by luminescence after 48 h
Cruzain inh noDet: cruzain (T. cruzi) inhibition without detergent; P25779; purified cruzain, Z-FR-AMC fluorescence, no detergent; 2.3% of 200,000 active; Potency, µM, for the others: max response, negative = inhibition, usual class: inhibitors; active = well fitted curve in the direction sought with a large enough effect; inconclusive = small, poorly fitted or top-dose-only effect, or another doubt; inactive = no such curve, though single readings can be large; an effect the other way counts as inactive or inconclusive;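 note: plate controls were enzyme without inhibitor for no effect and buffer without enzyme for full effect; nearly all actives have a fitted effect of over 40% in size; top concentration of the series not given in the record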
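Detergent-free condition (0.00005% Triton X-100) in acetate buffer pH 5.5 with DTT. 1.5 nM enzyme and compound were pre-mixed 15 min, then 2 uM Z-FR-AMC substrate added; reaction progress from fluorescence change between first and third reads (60 s).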
An asterisk follows results filed as active; & = joins results of further samples; ! = not confirmed by another sample; [ ] = remark or other dose. Unless noted, calls come from the whole dose curve; as a rule, active means well fitted rising curve with a large enough effect; inconclusive means small, poorly fitted or top-dose-only effect; inactive means no such curve, though single readings can be large or run the other way. Potency is the fitted concentration of half-maximal effect. This is a random part of the collection. About 4.6% of those tested had a hit in this group.

For NC(=O)N/N=C/c1cc(F)cc(F)c1 the results were Marburg entry inh 5%[46.1 µM], RE007 growth inh 11%, NS1 function inh 4%, Lassa entry inh 22%[46.1 µM], StopGo reporter -10% and SARS PLP yeast 0%.
`Cc1oc(-c2cc(F)ccc2F)nc1CN1CCCN(C(=O)c2ccco2)CC1` gave Marburg entry inh 1%[46.1 µM], RE007 growth inh 0%, NS1 function inh 9%, Lassa entry inh -1%[46.1 µM], StopGo reporter -14% and SARS PLP yeast 1%.
`CCOC(=O)Cn1nnnc1CN(CCc1ccccc1)Cc1cc2cc(CC)ccc2[nH]c1=O` gave Cruzain Triton -4.2%, Marburg entry inh inconclusive, RE007 growth inh 2%, NS1 function inh 1%, Lassa entry inh inconclusive, StopGo reporter -21%, SARS PLP yeast -4% and Cruzain inh noDet 18%.
O=C(Nc1ccccc1)[C@@H]1[C@@H]2C(=O)N(c3ccc(F)cc3)C(=O)[C@@H]2[C@H]2C=CC=NN21 was read as Marburg entry inh 1%[14.2 µM], RE007 growth inh -3%, NS1 function inh 8%, Lassa entry inh 10%, StopGo reporter -13% and SARS PLP yeast 0%.
Screening O=C(COc1ccc([N+](=O)[O-])cc1)Nc1cc(S(=O)(=O)N2CCCCC2)ccc1N1CCCCC1 returned Marburg entry inh 0%, RE007 growth inh -16%, Lassa entry inh 5%, StopGo reporter -20% and SARS PLP yeast 0%.
For C[C@@H]1NC(=O)[C@H](CCCN=C(N)N)NC(=O)c2cc([N+](=O)[O-])cc(I)c2OCC[C@@H](C(N)=O)NC1=O the results were Cruzain Triton -1.7%, Marburg entry inh 1%, NS1 function inh 7%, Lassa entry inh 4%, SARS PLP yeast 15% and Cruzain inh noDet -4%.
For O=C(NCC(c1cccs1)N1CCOCC1)c1cnc(Cl)c(Cl)c1 (stereo not given) the results were Marburg entry inh inconclusive, RE007 growth inh 15%, Lassa entry inh -17%, StopGo reporter -12% and SARS PLP yeast -1%.
For Cc1nn(C)c(C)c1CCNC(=O)Nc1cccc(Cl)c1C the results were Cruzain Triton -1.2%, Lassa entry inh -9%[46.1 µM], StopGo reporter 15% and Cruzain inh noDet 1%.
For Cc1cc(N2C(=O)CC(N3CCN(c4ccc(C(=O)c5cccs5)cc4)CC3)C2=O)no1 (stereo not given) the results were Cruzain Triton -4.7%, Marburg entry inh 25%&25%[46.1 µM], RE007 growth inh -25%, NS1 function inh -32%, Lassa entry inh 14%, StopGo reporter -4%, SARS PLP yeast -6% and Cruzain inh noDet 9%.
For CCC(=O)Nc1ccc(Oc2ccc3c(c2)C(=O)N(c2ccc(O)cc2)C3=O)cc1 the results were Cruzain Triton 0.5%, Marburg entry inh -5%, RE007 growth inh 30%, NS1 function inh -3%, Lassa entry inh -5%, StopGo reporter -24%, SARS PLP yeast 5% and Cruzain inh noDet 2%.
`CN(CC(CC(=O)O)c1ccccc1)S(=O)(=O)c1ccc(Br)cc1` (stereo not given) gave Cruzain Triton 3.3%, Marburg entry inh 6%, RE007 growth inh 5%, NS1 function inh 16%, StopGo reporter -12%, SARS PLP yeast -1% and Cruzain inh noDet 4%.
For CC(C)(C)c1ccc(C(=O)NCC(c2cccs2)S(=O)(=O)c2cccs2)cc1 (stereo not given) the results were Cruzain Triton -3.8%, Lassa entry inh inconclusive, StopGo reporter 0% and Cruzain inh noDet -4%.
`CC(=O)c1cc(C#N)c(N2CCOCC2)nc1C` gave Marburg entry inh 14%, RE007 growth inh 7%, Lassa entry inh -1%, StopGo reporter 30%[activator] and SARS PLP yeast 1%.
For O=C(N1CCCCC1)N1CCC(c2nc3ccccc3[nH]2)CC1 the results were RE007 growth inh 17%, NS1 function inh 0%, StopGo reporter -8% and SARS PLP yeast 2%.
`COCc1cc(C)nc(OCC(=O)N/N=C/c2ccc(-c3cc([N+](=O)[O-])ccc3Cl)o2)c1C#N` gave Marburg entry inh inconclusive, RE007 growth inh -25%, Lassa entry inh -16%, StopGo reporter -19% and SARS PLP yeast -1%.
NC(=O)/C(=C\c1ccco1)NC(=O)c1ccc(Br)o1 was read as Marburg entry inh 1%[46.1 µM], RE007 growth inh 12%, Lassa entry inh 16%[46.1 µM] and StopGo reporter 20%.
`CN1C(=O)c2cccc3c(S(=O)(=O)Nc4ccccc4F)ccc1c23` gave Marburg entry inh -17%[46.1 µM], RE007 growth inh 10%, NS1 function inh 6%, Lassa entry inh -28%[46.1 µM], StopGo reporter 26% and SARS PLP yeast 0%.
`Cc1nn(-c2ccccc2)c2[nH]c(=O)c(CNCC3CCCO3)cc12` (stereo not given) gave Cruzain Triton -0.8%, Marburg entry inh -5%[46.1 µM], RE007 growth inh 27%, NS1 function inh 2%, Lassa entry inh 1%, StopGo reporter -7%, SARS PLP yeast 2% and Cruzain inh noDet 1%.
Screening O=C(Nc1nncs1)C1(c2ccccc2)CCCC1 returned Cruzain Triton 8.3%, Marburg entry inh 5%, RE007 growth inh 1%, NS1 function inh -63%, Lassa entry inh 15%, StopGo reporter -23% and Cruzain inh noDet 1%.
CCOc1cc(NC(=O)c2cccs2)c(OCC)cc1NC(=O)CCC(=O)NCCN1CCOCC1 was read as Marburg entry inh -6%[46.1 µM], RE007 growth inh -9%, NS1 function inh 4%, Lassa entry inh -1%[46.1 µM], StopGo reporter -4% and SARS PLP yeast -1%.
Screening COc1ccc(NC(=O)c2cc(-c3ccncc3)nc3ccccc23)c(OC)c1 returned Marburg entry inh 5.6µM*, RE007 growth inh 10%, Lassa entry inh inconclusive, StopGo reporter -19% and SARS PLP yeast -11%.
`Cc1ccc(Cl)cc1N1CCN(C(=O)c2cc3c(=O)[nH]c4ccccc4c3n2C)CC1` gave Cruzain Triton -0.9%, Marburg entry inh 5.6µM*!, RE007 growth inh 3%, NS1 function inh 13%, Lassa entry inh inconclusive, StopGo reporter 7.9µM*, SARS PLP yeast 7% and Cruzain inh noDet inconclusive.
CCOc1ccc(NC(=O)c2cc(S(=O)(=O)NC3CCCCCC3)ccc2F)cc1 was read as Cruzain Triton -0.2%, Lassa entry inh -17%[46.1 µM], StopGo reporter 39%[activator] and Cruzain inh noDet 4%.
CCN1C(=O)/C(=C\N2CCN(c3cccc(Cl)c3)CC2)SC1=S was read as Cruzain Triton 2.4%, Marburg entry inh -3%, RE007 growth inh -2%, NS1 function inh 6%, Lassa entry inh 9%, StopGo reporter -19%, SARS PLP yeast 3% and Cruzain inh noDet -2%.
`O=c1[nH]c2cc3c(cc2cc1C(c1nnnn1Cc1ccccc1)N1CCCCCC1)OCCO3` (stereo not given) gave Cruzain Triton -14%, Marburg entry inh inconclusive, RE007 growth inh -9%, NS1 function inh 4%, Lassa entry inh inconclusive, StopGo reporter 11%, SARS PLP yeast 9% and Cruzain inh noDet -28%.
Screening O=c1[nH]c2ccccc2c(=O)n1-c1ccc(Cl)c(Cl)c1 returned Cruzain Triton 0.4%, Lassa entry inh -2%[46.1 µM], StopGo reporter -4% and Cruzain inh noDet -4%.
Screening COc1ccc(-c2cc(C(=O)NCC3CCCO3)c3cc(C)ccc3n2)cc1 (stereo not given) returned Marburg entry inh inconclusive, RE007 growth inh -7%, NS1 function inh -9%, Lassa entry inh -19%[46.1 µM], StopGo reporter 19% and SARS PLP yeast 0%.
Screening Nc1nc(Cl)cc(Sc2ccc(F)cc2)n1 returned Cruzain Triton -1.6%, Marburg entry inh 9%, RE007 growth inh 14%, NS1 function inh -1%, Lassa entry inh 9%, StopGo reporter 2%, SARS PLP yeast 7% and Cruzain inh noDet inconclusive.
`CCN1CCN(C(c2cccc(OC)c2)c2c(O)cc(C)n(Cc3ccco3)c2=O)CC1` (stereo not given) gave Cruzain Triton 1.9%, Lassa entry inh -3%[46.1 µM], StopGo reporter 0% and Cruzain inh noDet inconclusive.
O=C(Nc1ccccc1Oc1ccccc1)c1ccc(Br)o1 was read as Cruzain Triton -7.6%, Marburg entry inh inconclusive, RE007 growth inh -9%, NS1 function inh inconclusive, Lassa entry inh inconclusive, StopGo reporter -10%, SARS PLP yeast -5% and Cruzain inh noDet 1%.
`Cc1ccc(N2CCN(C(=O)c3cn(C)c4ccc(S(=O)(=O)N(C)C5CCCCC5)cc4c3=O)CC2C)cc1` (stereo not given) gave Cruzain Triton 0.2%, Marburg entry inh 2%[46.1 µM], Lassa entry inh 23%[46.1 µM], StopGo reporter -12% and Cruzain inh noDet -13%.
Screening Clc1ccc(-n2nnnc2-c2ccccc2)cc1 returned Cruzain Triton 0.8%, Marburg entry inh 9%, RE007 growth inh 9%, NS1 function inh -4%, Lassa entry inh 12%, StopGo reporter -21%, SARS PLP yeast 1% and Cruzain inh noDet 2%.
For Cn1cc(SCC(=O)NCC2CCCO2)c2ccccc21 (stereo not given) the results were Cruzain Triton -5.8%, RE007 growth inh 11%, NS1 function inh 0%, StopGo reporter -11%, SARS PLP yeast -4% and Cruzain inh noDet -8%.
Screening CN(C)c1ccc(/C=N/NC(=O)c2ccc3c(c2)OCO3)cc1 returned RE007 growth inh 9%, NS1 function inh -11%, StopGo reporter 57%[activator] and SARS PLP yeast -3%.
`COc1ccccc1/C=N/NC1=NCCCCC1` gave Cruzain Triton 1.4%, Marburg entry inh 18%, RE007 growth inh -15%, NS1 function inh 9%, Lassa entry inh inconclusive, SARS PLP yeast 17% and Cruzain inh noDet 2%.
Screening O=C(NC1CCCCC1)C1CCN(C(=O)c2ccccc2Cl)CC1 returned Marburg entry inh 11%[46.1 µM], RE007 growth inh 2%, NS1 function inh 12%, Lassa entry inh 1%[46.1 µM], StopGo reporter -17% and SARS PLP yeast -1%.
Screening Cc1cccc(NC(=O)C2CCN(S(=O)(=O)c3cccs3)CC2)c1 returned Cruzain Triton -1.2%, Marburg entry inh 24%, RE007 growth inh 0%, NS1 function inh -13%, Lassa entry inh -12%, StopGo reporter -25%, SARS PLP yeast 11% and Cruzain inh noDet 5%.
`COc1ccccc1NC(=S)NCCc1ccc(OC)c(OC)c1` gave Marburg entry inh inconclusive, RE007 growth inh 7%, NS1 function inh -6%, Lassa entry inh 13%, StopGo reporter -9% and SARS PLP yeast -1%.
